Screening data (PubChem)
Rce1 inh: inhibitors of yeast Ras-converting enzyme | Q03530 | yeast membranes, quenched prenylated peptide cleavage fluorescence | calls only | 290,000 compounds, 0.27% hits | AID 2563;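 active means fall in fluorescence gain of 50% or more versus controls, with final raw signal at or below 3038400; inconclusive means same 50% fall but final raw signal above 3038400; inactive means fall in fluorescence gain under 50%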;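 further: plate controls were neutral control wells for no effect and wells lacking membranes for full effect; tested at 10 µM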
Target sequence (Q03530 whole entry, looked up): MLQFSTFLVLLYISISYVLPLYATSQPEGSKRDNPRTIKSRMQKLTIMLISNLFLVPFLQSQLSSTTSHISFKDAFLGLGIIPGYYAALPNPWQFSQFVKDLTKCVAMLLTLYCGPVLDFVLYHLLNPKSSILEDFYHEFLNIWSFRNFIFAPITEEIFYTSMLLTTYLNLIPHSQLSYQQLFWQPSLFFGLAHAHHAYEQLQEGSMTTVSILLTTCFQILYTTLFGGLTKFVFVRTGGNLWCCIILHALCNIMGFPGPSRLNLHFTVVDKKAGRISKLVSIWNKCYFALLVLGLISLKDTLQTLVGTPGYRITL
Env fusion inh: blocks HIV Env-driven cell-cell fusion. HeLa-JRFL Env/CEM21 cell fusion, luciferase. inhibition, % at 12.3 µM. 360,000 compounds, 1.1% hits. AID 651610;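 active means mean replicate inhibition score of at least 50 and every replicate individually at or above 50; inconclusive means only one of the two criteria met; inactive means mean below 50 and not all replicates reaching 50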;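 further: 0% = plate neutral controls and 100% = maraviroc near 300 nM; one replicate is shown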
PABP FP inh: blocks human PABP binding to poly(A) RNA; P11940; fluorescence polarization; inhibition, % at 35 µM; 290,000 compounds, 1% hits; AID 2014;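 active means 50% or more with normal probe brightness, or confirmed in later tests; inconclusive means above 50% with abnormal brightness, or retests that disagree; inactive means below 50% or failed in later tests; about a fifth of its hits are not listed in these tables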;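 further: calls also rest on retests at 20 µM and on dose response follow-up; controls were probe without protein and protein plus probe with vehicle; some compounds called inactive have numbers as strong as hits; many hits fall short of the cut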
Target sequence (P11940 whole entry, looked up): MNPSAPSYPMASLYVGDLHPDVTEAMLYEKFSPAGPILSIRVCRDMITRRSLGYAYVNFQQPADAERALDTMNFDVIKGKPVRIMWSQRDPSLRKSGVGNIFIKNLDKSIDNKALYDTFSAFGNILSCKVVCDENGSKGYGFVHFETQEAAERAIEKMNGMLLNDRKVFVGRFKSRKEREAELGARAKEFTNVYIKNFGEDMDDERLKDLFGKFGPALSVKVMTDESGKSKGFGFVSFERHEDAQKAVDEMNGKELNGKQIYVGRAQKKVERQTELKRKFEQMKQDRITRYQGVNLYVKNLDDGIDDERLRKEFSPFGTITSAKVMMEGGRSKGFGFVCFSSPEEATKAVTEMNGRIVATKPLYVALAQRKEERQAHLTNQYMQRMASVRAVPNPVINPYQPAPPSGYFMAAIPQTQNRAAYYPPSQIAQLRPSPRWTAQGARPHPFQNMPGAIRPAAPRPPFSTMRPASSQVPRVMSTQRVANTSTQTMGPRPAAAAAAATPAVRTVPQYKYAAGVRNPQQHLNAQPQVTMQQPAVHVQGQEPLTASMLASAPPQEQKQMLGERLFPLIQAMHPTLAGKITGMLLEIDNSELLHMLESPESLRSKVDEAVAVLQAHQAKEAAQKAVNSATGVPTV
MT1-MMP act inh: blocks activation of human MT1-MMP; GFP/RFP ratio change, % at 20 µM; P50281; AID 651647; 360,000 compounds, 0.061% hits; HT1080 RFP-PRO-GFP cells, GFP/RFP ratio fluorescence, overnight; percent of plate control window, DMSO zero;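 active means GFP/RFP ratio change of at least 30% with cell ATP level not reduced by more than half and red fluorescence within 50% of control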; further: strong numbers were not always called active
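Test system: HT1080 cells expressing an RFP-PRO-GFP fluorescent reporter construct / Compound dosing: single-point 20 µM compound, 1% DMSO / Schedule: cells overnight before dosing, compound overnight, 37 °C, 5% CO2 / Evaluation: GFP/RFP fluorescence ratio / Control set: DMSO and RFP-L50D-GFP cell wells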
eIF4H FP inh: inhibitors of RNA binding by human eIF4H; Q15056; eIF4H fluorescence polarization binding assay; inhibition, % at 35 µM; 290,000 compounds, 0.94% hits; AID 2012;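 active means 50% or more with normal probe brightness, or confirmed in later tests; inconclusive means above 50% with abnormal brightness, or retests that disagree; inactive means below 50% or failed in later tests; about a fifth of its hits are not listed in these tables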;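 further: calls also rest on retests at 20 µM and on dose response follow-up; 0% = protein and probe with vehicle and 100% = probe without protein; strong numbers were not always called active; many hits fall short of the cut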
Yeast UUG start: alters start codon recognition fidelity in yeast; AID 602363; activity score, % at 18.7 µM; 350,000 compounds, 0.13% hits; S. cerevisiae UUG-firefly luciferase reporter, luminescence/redox ratio;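 active means replicate mean at a twofold rise or more, about +100% in these data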;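 further: firefly luciferase made from a UUG start codon reports start codon fidelity; reporter light over untreated wells divided by growth signal over untreated wells; some hits fall short of that in this replicate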
CSC inhib: blocks cancer stem cells | 300,000 compounds, 1.1% hits | inhibition, % at 7.5 µM | cancer stem cell-like cells viability, luminescence;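 active means mean at 75% or more and at least half the replicates too; inconclusive means mean and replicates disagree; tested in HMLE shEcad cells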;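 further: 0% = median of negative and 100% = median of positive control wells; the first replicate is given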
eIF4H FP inh retest: recorded beside eIF4H FP inh, whose call it bears; inhibition, %; compound at 20 µM; confirmation average;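 mean of two retest wells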
PABP FP inh retest: further read-out of PABP FP inh, marked with its call; inhibition, %; compound at 20 µM; confirmation repeats;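 mean of two retest wells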
MT1-MMP act inh RFP: second read-out of MT1-MMP act inh, no call of its own (marks repeat the call); RFP signal change, %; measured here: RFP expression control read;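 0 = vehicle wells; hits needed this value within 50% of zero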
An asterisk follows results filed as active; i = inactive; ? = inconclusive; . = not tested or not shown; & = joins results of further samples.

SMILES	Rce1 inh	Env fusion inh	PABP FP inh	MT1-MMP act inh	MT1-MMP act inh RFP	eIF4H FP inh	Yeast UUG start	CSC inhib	others
Cc1ccc(NC(=O)C(C)Sc2nnc(C3CC3)n2C2CC2)cc1S(=O)(=O)N1CCOCC1 (stereo unspecified)	.	.	.	-8	-1	.	-4	-10
CN(C)CCN(Cc1ccco1)C(=O)c1cc2c(Cl)nc3ccccc3c2s1	i	-49	-15	-9	-5	-11	.	-12
CC(C)COc1ccc(C(=O)Nc2ccccc2[N+](=O)[O-])cc1	i	-36	-7	2	-3	0	.	.
CCCOc1ccc(N2C(=O)CC(NCc3cccs3)C2=O)cc1 (stereo unspecified)	i	.	1	3	6	6	2	-5
N=C1S/C(=C\c2ccc(O)cc2)C(=O)N1c1ccc(F)cc1	i	.	10	0	0	15	.	-14
CCOC(=O)C1CCN(C(=O)CN(c2ccc(Cl)c(C(F)(F)F)c2)S(C)(=O)=O)CC1	i	.	-1	1	-1	-5	4	-9
O=Cc1c(SCCO)nc2ccccn2c1=O	i	10	18	-1	0	5	-19	-16
CC(=O)Nc1ccc(CN2CCCC(CO)(Cc3cccc(Cl)c3)C2)cc1 (stereo unspecified)	i	0	7	-3	-5	2	-5	12
CC(=O)c1cccc(NC(=O)N2CCCc3ccccc32)c1	i	.	-10	4	0	8	-16	-12
CCCOc1ccc(C(=O)NCC(c2ccco2)N(C)C)cc1OC (stereo unspecified)	i	20	120	0	3	7	.	10	eIF4H FP inh retest=-6;PABP FP inh retest=1
COC(=O)c1ccccc1Oc1c(F)c(F)nc(N2CCOCC2)c1F	i	8	-7	3	2	3	-14	7
N#CC(c1ccc(Cl)nn1)c1c(F)cccc1Cl (stereo unspecified)	i	-3	6	4	2	3	.	-4
c1ccc(Cc2nnc(Sc3ccccc3)c3ccccc23)cc1	i	.	-9	2	-2	0	-14	41
CCC(=O)N1CCN(c2ccccc2NC(=O)c2cccc(C)c2)CC1	i	32	-4	-4	-1	0	-14	-1
O=C(NCc1ccc(Cl)cc1Cl)Nc1ccccc1	.	-47	.	1	1	.	.	15
CCOC(=O)c1ccc(NC(=O)N2CCN(c3ccccn3)CC2)cc1	i	-148	-10	-1	0	-3	-11	8
Cc1ccc(CNC(=O)C(=O)Nc2nccs2)cc1	i	-10	-3	2	2	1	-26	-8
Cc1nc(CS(=O)c2ccccc2)cc(N2CCOCC2)n1 (stereo unspecified)	i	.	7	1	-1	2	-22	-8
COC(=O)N/N=C/c1cn(CCOc2cccc(OC)c2)c2ccccc12	i	11	-3	-5	-11	-3	-10	1
O=C(CCc1nc(-c2ccccc2)no1)NCc1cccnc1	i	.	-8	4	0	3	-32	-11
S=C(Nc1ccc(Br)cc1)N1CCN(C2CCCCC2)CC1	i	.	1	2	2	-18	-28	.
O=C(CC1SCCNC1=O)Nc1ccccc1Cl (stereo unspecified)	i	1	2	1	6	-8	.	-5
C[C@H](CO)N1C[C@H](C)[C@H](CN(C)C(=O)Cc2ccncc2)Oc2ncc(Br)cc2C1=O	.	10	.	1	3	.	-4&-19	.
Cc1nc(SCc2nc3ccc(F)cc3[nH]2)c2oc3ccccc3c2n1	.	19	.	-3	-3	.	-8	.
C[C@@H]1CN([C@@H](C)CO)C(=O)CCCn2nncc2CO[C@H]1CN(C)Cc1ccccc1	.	-36	.	3	2	.	-14&1&-26	.
O/N=C1\CCCc2oc3c(c21)CCCC3	.	-77	9	1	-2	-6	3	-4
CCN(CC)C(=O)CSc1nc(C)cc(-c2cccs2)c1C#N	i	.	-11	-16	-4	-8	10	-15
CCOC(=O)N1CCN(Cc2c(O)ccc3ccccc23)CC1	i	5	2	-7	-3	-2	6	-2
C/C(=N\NC(=O)CSCc1cccc(Br)c1)c1ccc([N+](=O)[O-])cc1	i	13	2	4	-2	8	.	-7
COCCn1c(=O)[nH]c2cc(C(=O)NCc3ccccc3)ccc2c1=O	i	-91	-7	5	3	-14	-16	-4
COc1cc(N2CCCC2)c(OC)cc1/C=C(/C#N)c1ccc(F)cc1	i	.	0	-123	-6	35	-8	63
CN(C)c1ccc(/C=C/c2nc3ccccc3s2)cc1	i	-53	34	-64	-2	46	-47	55
COc1cc(C2NC(=O)NC(c3ccccc3)=C2C(C)=O)cc(Cl)c1OCC(=O)O (stereo unspecified)	i	14	8	-1	3	-4	.	-5
CCN1C(=O)[C@H]2[C@@H](c3ccc(-c4ccccc4)c(OC)c3)N[C@@](CC(C)C)(C(=O)OC)[C@H]2C1=O	.	-31	.	-13	-13	.	5	.
N/C(=N\OC(=O)CCCc1ccccc1)c1cccc([N+](=O)[O-])c1	i	-6	-12	4	0	-12	.	-9
COCCNC(=O)Cn1c(=O)oc2cc(S(=O)(=O)N3CC(C)CC(C)C3)ccc21 (stereo unspecified)	i	-7	3	3	-5	-3	-20	-5
CCOC(=O)N1CCN(C(=O)COc2cc(C)c(Cl)c(C)c2)CC1	i	12	4	1	-2	-11	.	-6
COc1ccc2c(Cl)c(C(=O)N/N=C/c3cccnc3)sc2c1	i	-28	-15	1	0	-11	-6	8
Cc1c(N(C)S(=O)(=O)c2cc(C(=O)N3CCCC3)ccc2Cl)c(=O)n(-c2ccccc2)n1C	i	.	29	0	2	6	6	-3
O=C(NCC(c1cccnc1)N1CCN(c2ccc(F)cc2)CC1)c1cccc(Cl)c1 (stereo unspecified)	i	.	2	-1	-16	-3	.	3
O=C(O)CC1(CC(=O)N2CCN(CCO)CC2)CCCC1	i	3	-7	0	0	-12	.	-10
CCc1sc(N(C(=O)Cc2ccccc2)c2ccccc2)nc1-c1ccccc1	i	.	5	-8	-7	-3	-4	3
Cc1ccc(C(=O)OCC(=O)NCCc2ccccc2)cc1S(=O)(=O)N1CCOCC1	i	.	.	0	6	.	-3	-5
Cc1nn(CCc2n[nH]c(=S)n2C2CCCCC2)c(C)c1Br	i	-31	-2	4	5	-10	-9	.
O=S(=O)(CCSc1nc2ccccc2s1)c1nc2ccccc2s1	i	29	-6	-7	-8	-3	-14	67
Cc1cc(NC(=O)C(C)SCC(=O)Nc2ccccc2OC(F)F)no1 (stereo unspecified)	i	7	3	4	3	7	-1	9
CCC(=O)Oc1oc(-c2ccccc2)nc1C=Nc1ccccc1OC	i	19	1	11	4	-1	-12	0
COc1ccc(OC)c2c(N)c(C#N)c(C(F)(F)C(F)(F)F)nc12	i	-16	2	-3	0	7	-24	-6
CCC(=O)N1CCN=C1SCc1ccccc1Cl	i	-13	-2	-1	3	1	-11	-7
COC(=O)c1sccc1-n1cccc1C(=O)N1CCOCC1	i	.	-5	5	2	12	-14	11
COc1ccc(Nc2nc(N3CCN(S(=O)(=O)N(C)C)CC3)nc3ccccc23)cc1	i	9	8	-8	-7	-8	6	8
c1ccc(OCCn2cnc3ccccc32)cc1	i	-6	2	0	3	2	-2	-6
Cc1nn(C)cc1-c1cc(C(=O)O)c2ccccc2n1	i	0	5	1	1	4	.	-11
Cc1cc(C)c2c(N)c(S(=O)c3ccc(C(C)(C)C)cc3)sc2n1 (stereo unspecified)	i	.	-1	11	0	0	2	-15
Nc1nnc(COc2ccc(Br)cc2Br)s1	i	-107	0	-3	-4	0	-27	-3
COc1cccc(C2C(C(=O)c3cccs3)=C(O)C(=O)N2CCN(C)C)c1OC (stereo unspecified)	i	-62	12	2	1	2	.	0
CCOc1cc(/C=N/NC(=O)CSc2nncn2C)ccc1OCc1ccccc1	i	.	?	-3	-3	5	-23	4
CC(C)C(=O)Nc1ccc(C(=O)NNC(=O)c2cccs2)cc1	i	-35	25	4	12	-4	-13	2
Fc1ccc(CN2CCSCC2)cc1Br	i	-7	19	3	2	6	-11	-15
COc1ccc(C2=NOC(C(=O)Nc3ccc(C(C)=O)cc3)C2)cc1OC (stereo unspecified)	i	10	-11	3	7	-10	18	-11
O=C(OCc1ccccc1)c1cccnc1Cl	.	?	-13	1	3	4	-9	-9
Cc1ccc(C2C(C(=O)O)c3ccccc3C(=O)N2C)o1 (stereo unspecified)	i	.	5	2	4	-4	9	-2
COc1cc2oc(=O)cc(-c3ccc(-c4ccc(CO)cc4)cc3)c2c(OC)c1OC	.	118*	.	-11	-15	.	-12	.

Of the compounds above, these contain four or more nitrogen atoms:
SMILES	Rce1 inh	Env fusion inh	PABP FP inh	MT1-MMP act inh	MT1-MMP act inh RFP	eIF4H FP inh	Yeast UUG start	CSC inhib	others
Cc1ccc(NC(=O)C(C)Sc2nnc(C3CC3)n2C2CC2)cc1S(=O)(=O)N1CCOCC1 (stereo unspecified)	.	.	.	-8	-1	.	-4	-10
CCOC(=O)c1ccc(NC(=O)N2CCN(c3ccccn3)CC2)cc1	i	-148	-10	-1	0	-3	-11	8
O=C(CCc1nc(-c2ccccc2)no1)NCc1cccnc1	i	.	-8	4	0	3	-32	-11
C[C@H](CO)N1C[C@H](C)[C@H](CN(C)C(=O)Cc2ccncc2)Oc2ncc(Br)cc2C1=O	.	10	.	1	3	.	-4&-19	.
Cc1nc(SCc2nc3ccc(F)cc3[nH]2)c2oc3ccccc3c2n1	.	19	.	-3	-3	.	-8	.
C[C@@H]1CN([C@@H](C)CO)C(=O)CCCn2nncc2CO[C@H]1CN(C)Cc1ccccc1	.	-36	.	3	2	.	-14&1&-26	.
Cc1c(N(C)S(=O)(=O)c2cc(C(=O)N3CCCC3)ccc2Cl)c(=O)n(-c2ccccc2)n1C	i	.	29	0	2	6	6	-3
O=C(NCC(c1cccnc1)N1CCN(c2ccc(F)cc2)CC1)c1cccc(Cl)c1 (stereo unspecified)	i	.	2	-1	-16	-3	.	3
Cc1nn(CCc2n[nH]c(=S)n2C2CCCCC2)c(C)c1Br	i	-31	-2	4	5	-10	-9	.
COc1ccc(Nc2nc(N3CCN(S(=O)(=O)N(C)C)CC3)nc3ccccc23)cc1	i	9	8	-8	-7	-8	6	8
CCOc1cc(/C=N/NC(=O)CSc2nncn2C)ccc1OCc1ccccc1	i	.	?	-3	-3	5	-23	4

This is a subset. The share of hits here may be higher or lower than overall.
